D2 agonist: Beta-Arrestin HTS for Positive Allosteric Modulators of the Human D2 Dopamine Receptor: Agonists | activation, % (test concentration not listed) | D(2) dopamine receptor (Homo sapiens), P14416 | 0.084% of 360,000 active | DiscoveRx PathHunter D2 beta-arrestin, luminescence, 90 min; 100% = 57 uM dopamine signal; in the data active = activation above about 40%; inconclusive = about 15% to 40%; inactive = below about 15%; also: compound concentration not given in the record; the text of the record calls up to 30% inactive
Target sequence (P14416 whole entry, looked up): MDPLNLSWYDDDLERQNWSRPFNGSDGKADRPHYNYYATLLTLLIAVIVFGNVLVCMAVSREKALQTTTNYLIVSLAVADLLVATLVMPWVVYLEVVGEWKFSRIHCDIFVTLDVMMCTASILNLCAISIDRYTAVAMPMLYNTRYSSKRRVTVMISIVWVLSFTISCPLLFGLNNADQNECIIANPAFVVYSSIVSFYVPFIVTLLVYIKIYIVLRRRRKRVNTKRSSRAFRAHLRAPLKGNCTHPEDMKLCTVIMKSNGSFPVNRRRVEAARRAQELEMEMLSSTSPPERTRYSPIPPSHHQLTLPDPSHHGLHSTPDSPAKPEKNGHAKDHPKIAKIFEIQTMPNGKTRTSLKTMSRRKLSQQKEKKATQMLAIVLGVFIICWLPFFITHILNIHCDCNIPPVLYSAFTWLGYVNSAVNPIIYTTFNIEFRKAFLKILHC
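DiscoveRx PathHunter D2 beta-arrestin cells (2,100/well) attached overnight, then compound-stimulated 90 min at 37 C in HBSS/10 mM HEPES/0.1% Tween-20 buffer; beta-galactosidase complementation read by luminescence after 1 h at ambient temperature. Dopamine 57 uM final (EC100) as control.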
D2 potentiator: Beta-Arrestin HTS for Positive Allosteric Modulators of the Human D2 Dopamine Receptor: Potentiators. D(2) dopamine receptor (Homo sapiens), P14416. DiscoveRx D2 beta-arrestin cells, luminescence, 90 min; 100% = 57 uM dopamine signal. potentiation, % (test concentration not listed). 0.23% of 360,000 active; active = potentiation of 50% or more; inconclusive = 30% to 50%; inactive = 30% or less;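 also: compound concentration not given in the record; tested on top of an EC20 dose of dopamine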
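PathHunter beta-arrestin assay in DiscoveRx D2 cells. Compounds were added with an EC20 of dopamine (50 nM final) for 90 min at 37 deg C. Luminescence was read 1 h after detection reagent, with 57 uM dopamine as the EC100 control.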
gsp antag: qHTS for Antagonists of gsp, the Etiologic Mutation Responsible for Fibrous Dysplasia/McCune-Albright Syndrome: qHTS | 0.4% of 340,000 active | gsp-mutant cells, cAMP HTRF, 30 min; control for the full effect not named in the record | Potency, µM (top dose mostly 76.9 µM), inactives show at the highest dose activity change, negative = inhibition, most hits filed as inhibitors; active = falling curve of any shape with a large fitted effect; inconclusive = falling curve, mostly with a smaller effect; inactive = flat or rising curve; cell line not stated here;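 also: intracellular cAMP measured with PDE inhibitor Ro 20-1724 present during compound exposure; potency is read from the fitted curve at half-maximal effect; % is scaled to controls: 0 for no effect and ±100 for the full control effect; nearly all actives have a fitted effect of over 65% in size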
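HTRF cAMP read-out (cAMP-d2 plus anti-cAMP antibody-K in lysis buffer, 30 min RT). Before lysis, cells are exposed to compounds with […] for 30 min at 37C in DPBS containing Ca/Mg, BSA and Tween 20.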
gsp ag: qHTS for Agonist of gsp, the Etiologic Mutation Responsible for Fibrous Dysplasia/McCune-Albright Syndrome: qHTS. gsp mutant cells, cAMP HTRF, 30 min; control for the full effect not named in the record. Potency, µM (top dose mostly 76.9 µM), for the others: at the top dose activation (cAMP increase), most hits filed as activators. 0.13% of 340,000 active. AID 624287, 2012; active = well fitted activation curve with a large enough effect; inconclusive = small, poorly fitted or top-dose-only effect, or another doubt; inactive = no such curve, though single readings can be large or run the other way; cell line not stated here;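 also: phosphodiesterase inhibitor Ro 20-1724 added with compounds to block cAMP breakdown; potency is read from the fitted curve at half-maximal effect; nearly all actives have a fitted effect of over 60% in size; about a fifth of the inactives were tested at one dose only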
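Cells in DMEM/10% FBS with G418 were pretreated with compounds in DMSO plus […] (300 uM stock) for 30 min at 37C. cAMP was measured by HTRF (cAMP-d2 plus anti-cAMP antibody-K) after 30 min at room temperature.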
Six1-Eya2 blk: qHTS Assay for Inhibitors of the Six1/Eya2 Interaction | 0.56% of 360,000 active | AID 651725, 2012 | Homeobox protein SIX1 (Homo sapiens) + Protein phosphatase EYA2 (Homo sapiens), … | AlphaScreen GST-Six1/His-Eya2 binding, biochemical; hits give low values; control for the full effect not named in the record | activity change, % (no concentration beside the values); in the data active = activity change below about -65%; inconclusive = about -30% to -65%; inactive = above about -30%; also: % is scaled to controls: 0 for no effect and ±100 for the full control effect; compound concentration not given in the record
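GST-Six1 + His-Eya2 (5X stock: 250/500 nM); Tris pH 8.0, 300 mM NaCl, 0.05% BSA, 0.02% Tween 20; GSH donor/Ni acceptor beads; 1 h 37 °C dark; AlphaScreen readout.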
CtBP-E1A inh: qHTS Assay for Inhibitors of the CtBP/E1A Interaction; CtBP / adenovirus E1A interaction (AlphaScreen); AlphaScreen GST-E1A/His-CtBP binding, 1536-well; hits give low values; control for the full effect not named in the record; activity change, % (test concentration not listed); 0.49% of 340,000 active; AID 651724, 2012; in the data active means activity change below about -65%; inconclusive means about -30% to -65%; inactive means above about -30%; also: % is scaled to controls: 0 for no effect and ±100 for the full control effect; compound concentration not given in the record
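AlphaScreen with 125 nM GST-E1A and 125 nM His-CtBP (5X stocks) in Tris pH 8.0, 300 mM NaCl, BSA, Tween 20, TCEP. Compounds preincubated 2 h at 37 deg C, then glutathione donor/nickel acceptor beads added for 1 h at 37 deg C in dark.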
Numbers without * were called inactive; ? = inconclusive; . = no result given; [ ] = another dose, or the depositor's remark.

Order of values: D2 agonist, D2 potentiator, gsp antag, gsp ag, Six1-Eya2 blk, CtBP-E1A inh
CN(C)CCOC1(Cc2ccc(F)cc2)CCC(C(C)(C)C)CC1 (stereo not given)
 : 0.4, -28.1, 11.7%, 26.6%, -11.5, -6.0
COc1cccc(Cn2c(-c3nonc3N)nc3ccccc32)c1
 : 2.7, -0.2, -5.3%, ?, 10.9, -5.5
CCCCn1c(N)c(N(CCOC)C(=O)CCc2ccc(OC)cc2)c(=O)[nH]c1=O
 : 1.8, -3.6, -2.2%, 10.6%, 5.2, 1.5
COC(=O)c1ccc(NC(=O)c2ccccc2CC[N+](=O)[O-])cc1
 : -3.5, -0.8, 6.3%, 0.4%[15.4 µM], 2.6, -1.6
Cc1ccc2c(c1)cc(CN(Cc1ccco1)C(=O)COc1ccccc1)c1nnnn12
 : -0.9, -17.1, -24.2%, -13.7%, -15.7, -0.5
O=C(Nc1nnc(SCC(=O)N2CCCCC2)s1)c1ccccc1F
 : 0.4, -6.7, -16.0%, 22.7%, 1.3, -22.5
Cc1cc(C)nc(NS(=O)(=O)c2ccc(NS(=O)(=O)c3ccc(F)c(F)c3)cc2)n1
 : -3.9, -10.3, ., 3.8%, 1.0, -6.7
CC(C)(C)c1nnc(NC(=O)c2ccc3c(c2)OCO3)s1
 : 1.3, 0.8, -8.1%, 9.4%[15.4 µM], 8.6, 22.9
O=C(Nc1ccc(F)cc1F)Nc1ccccc1C(=O)NCCN1CCNC1=O
 : -3.3, -6.2, -0.8%, -36.4%[inhibitor], 1.6, -6.3
COCCN(Cc1ccco1)C(=O)C1CCCN(c2ncnc3c2nc2n3CCCCC2)C1 (stereo not given)
 : 0.9, 1.6, 0.6%, -27.6%, -2.1, 0.8
CCc1cccc(NC(=O)C2CCN(S(=O)(=O)c3ccc4[nH]c(=O)ccc4c3)CC2)c1
 : -3.3, -9.9, -2.3%, -6.2%, 0.3, -7.9
CCOC(=O)CSc1nc2c(cnn2-c2ccc(C)cc2)c(=O)[nH]1
 : -1.5, 2.3, -1.3%, -37.2%[inhibitor], 0.5, 5.6
COCCNC(=O)CN(c1cc(Cl)ccc1OC)S(C)(=O)=O
 : -0.2, -2.1, -4.0%, -12.8%, 0.7, 12.7
CC(C)CNC(=O)NC(=O)COC(=O)COc1ccc(Cl)cc1Cl
 : -2.7, -4.3, 6.9%, 39.6%[15.4 µM], 12.2, 9.9
CCOC(=O)CCc1c(C)c2ccc(OCC(=O)N(CC)CC)c(C)c2oc1=O
 : -1.4, -17.4, -8.0%, -5.4%, 4.6, 4.6
Cc1ccc2nc(/C(C#N)=C/c3ccc(O)c(O)c3)[nH]c2c1
 : 1.2, 0.3, -7.6%, 15.8%, -7.2, -25.0
COc1ccc(OCC(=O)N/N=C2\CCc3ccccc32)cc1
 : -2.3, -12.2, 0.6%, 22.3%, 2.1, -0.7
Cc1cccc(OC(C)C(=O)Nc2ccc(N3CCCCC3)cc2)c1 (stereo not given)
 : -1.3, 2.6, 5.9%, -16.1%, -27.0, -19.5
Cc1cc(C)cc(N=Cc2ccc([N+](=O)[O-])s2)c1
 : 3.2, 6.7, -1.6%, -10.7%, ?, ?
Cc1ccc(N2CCCCn3c2nc2c3c(=O)n(CC(=O)O)c(=O)n2C)cc1
 : -3.1, -3.2, 2.3%, -46.8%[inhibitor], -9.3, -0.6
CCc1nc(SCC(=O)N2CCCCC2)c2c(=O)n(C)c(=O)n(C)c2n1
 : -1.7, -6.7, -6.8%, ?, -7.1, -29.6
CC1Cc2ccccc2N1C(=O)CSc1nnc(CNc2ccccc2)o1 (stereo not given)
 : 0.8, -1.5, -4.9%, -4.3%, -1.7, -0.6
CCOc1ccc(C(=O)Nc2cccc3nsnc23)cc1[N+](=O)[O-]
 : -3.5, -11.0, 8.8%, 8.5%[15.4 µM], 17.3, 4.1
CC(OC(=O)CCc1nc2ccccc2[nH]c1=O)c1ccccc1 (stereo not given)
 : -2.4, -5.7, 11.8%, 0.8%[15.4 µM], 15.1, 10.1
CCc1ccc(OCC(O)CN2CCN(c3ccccn3)CC2)cc1 (stereo not given)
 : ?, 5.7, -11.5%, -3.8%, -0.3, -3.0
CC(Sc1nnc(C(F)(F)F)n1C)C(=O)Nc1ccc(S(N)(=O)=O)cc1 (stereo not given)
 : -0.1, -0.3, -3.7%, -33.0%[inhibitor], 0.5, -2.3
Cc1nnc2sc(SCC(=O)Nc3ccc(Cl)cc3)nn2c1=O
 : 3.1, 0.1, -8.1%, 17.8%, ?, -88.3*
Cc1c(N/N=C(\C#N)C(=O)c2ccc(Cl)cc2)c(=O)n(-c2ccccc2)n1C
 : -10.8, -40.8, -19.2%, 19.6%, -82.1*, -75.6*
O=C(COC(=O)C1CC2C=CC1C2)Nc1ccccc1 (stereo not given)
 : -1.1, -22.0, -0.3%, -43.5%, -4.4, 5.2
COc1ccc(-c2nc(S(=O)(=O)c3ccccc3)c(N3CCN(C)CC3)o2)cc1
 : -1.2, -23.3, ., -35.5%[inhibitor], -12.6, -1.4
O=C(/C=C/c1cccc([N+](=O)[O-])c1)N1CCN(Cc2ccc3c(c2)OCO3)CC1
 : 0.8, -3.0, -19.2%, 16.2%, 1.2, 6.3
CCN(CC(=O)Nc1ccc(NC(C)=O)cc1)C(=O)CN1C(=O)NC(C)(c2ccc3ccccc3c2)C1=O (stereo not given)
 : -2.3, -6.3, 6.6%, 3.4%, -1.7, 0.0
COc1ccc(OC)c(C(=O)c2ccc([N+](=O)[O-])cc2)c1
 : 9.8, 8.4, 8.9%, ?, ?, ?
COc1ccc(OC)c(S(=O)(=O)Nc2ccccc2C)c1
 : -3.4, -2.5, 3.5%, -30.6%[inhibitor], 3.8, 9.0
CCCCNC(=O)Nc1ccccc1C(=O)Nc1ccc(OC)cc1
 : -2.7, -7.9, 1.2%, -23.0%, -2.1, -0.1
O=C(/C=C/c1c(Cl)cccc1Cl)NCc1ccco1
 : -0.1, -17.4, 7.2%, 4.8%, 5.5, 10.7
CCC(=O)Nc1ccc(Cl)c(NC(=S)NC(=O)c2cc3ccccc3o2)c1
 : -1.3, 0.3, -6.1%, ?, 1.2, -4.9
O=C(CSc1nc2ccccc2c(=O)n1CC1CCCO1)NCCc1ccccc1 (stereo not given)
 : 1.4, -5.3, -20.3%, 4.0%, -0.3, -6.2
CCCn1c(C)cc(C(=O)COC(=O)c2nccnc2N)c1C
 : -0.1, -2.9, 14.4%, 3.9%[15.4 µM], -9.9, -0.2
Cc1oc(-c2ccc(Cl)cc2)nc1CN1CCC(C(=O)NCc2ccco2)CC1
 : -4.1, -10.6, 0.9%, 10.0%, -2.5, -0.4
CC12CCC3C(CCC4CC(O)CCC43C)C1CC(O)C2 (stereo not given)
 : -2.0, 2.5, -0.6%, 10.1%, 1.5, 0.7
O=C(O)C1CCN(C(=O)COc2ccc3c(c2)oc(=O)c2ccccc23)CC1
 : -7.2, -28.5, 4.9%, ., -4.5, -12.4
COC(=O)c1c(NC(=O)CN2C(=O)c3ccccc3C2=O)sc(Cc2ccc3c(c2)OCO3)c1C
 : -6.5, -2.0, 1.7%, 2.2%, -17.6, -8.6
COCCNC(=O)C1CCN(S(=O)(=O)c2ccc3c(c2)OCCO3)CC1
 : -0.6, -4.7, 5.4%, 6.0%[15.4 µM], 1.6, -3.3
Cc1cccc(C(=O)NC2C(=O)NNC2c2ccc(Cl)cc2)c1 (stereo not given)
 : -8.0, -24.6, -8.3%, 13.0%[15.4 µM], 6.2, 4.4
CCCCC1C2=C(CCCC2=O)OC2=C1C(=O)CCC2
 : -2.6, -17.6, 8.1%, 6.1%, 1.0, 3.5
CCC(=O)NC(=S)Nc1ccc(NC(=O)c2cccc([N+](=O)[O-])c2C)cc1
 : 0.9, -19.6, -6.2%, -0.2%, -13.4, -0.7
FC(F)(F)c1nc2ccccc2[nH]1
 : -2.5, 2.1, -3.3%, -39.6%[inhibitor], 8.0, .
O=C(O)c1nn(-c2ccccc2)ccc1=O
 : -1.0, 2.5, 11.3%, 1.5%, 4.8, 3.7
O=c1ccc(-c2ccc(S(=O)(=O)N3CCCCC3)o2)n[nH]1
 : -4.4, -9.6, -0.6%, 8.7%, 4.5, .
CCCN1CCC(NC(=O)C2CC=CCC2C(=O)O)CC1 (stereo not given)
 : 4.0, 5.7, 8.5%, 17.9%, -0.1, 5.0
CCOC(=O)c1c(C)n(CCO)c2ccc(O)cc12
 : -1.6, -4.7, -0.4%, 0.5%, -1.5, -0.6
C/C(=N\NC(=O)C1CCCN(S(=O)(=O)c2ccccc2)C1)c1ccncc1 (stereo not given)
 : -1.8, -15.1, -5.7%, 14.8%, -5.6, -1.3
COc1cc(CNCc2c[nH]c3ccccc23)cc(OC)c1
 : -5.2, -9.2, 6.3%, -5.8%[15.4 µM], -0.7, 0.6
O=C1N(Cc2cccnc2)C[C@@H]2C[C@@H](c3ccccc3C(F)(F)F)N3CCC[C@@]123
 : -0.1, -6.8, 5.1%, 27.0%, -13.2, -13.1
CCNc1ccc(C(=O)OCC(=O)NCc2ccc(C)cc2)cc1[N+](=O)[O-]
 : -2.8, -7.9, 7.4%, 9.8%, -5.0, -8.7
CCN(CC)S(=O)(=O)c1ccc(N2CCN(c3ccccc3O)CC2)nc1
 : 1.4, -9.9, -9.9%, 1.6%, -18.7, -6.9
CCc1cccc(C)c1NC(=O)Cn1c(NCCO)nc2ccccc21
 : -1.0, -0.7, -2.7%, -8.0%[15.4 µM], -3.9, 15.6
CCOc1ccc(Cl)cc1-c1cc(C(=O)NCCc2ccncc2)[nH]n1
 : 9.8, -18.7, ., ., -12.0, -13.5
CN(C)S(=O)(=O)c1cccc(C(=O)OCC(=O)c2c(N)n(C)c(=O)n(C)c2=O)c1
 : -3.3, -2.8, 7.0%, 26.9%[15.4 µM], -1.8, 5.1
Cc1nn(-c2cc(N3CCOCC3)ccc2N)c(=O)c2ccccc12
 : 0.2, -5.3, 2.2%, 2.9%, -1.0, -4.3
Cc1ccsc1C(=O)OCC(=O)NCCCc1ccccc1
 : -4.5, -11.2, -5.8%, 0.5%, -0.8, .

Assay outcomes (PubChem BioAssay)
